# From PubChem
# NOMO-1 viab: NOMO-1 AML cell viability reduction, primary screen, STK33 inhibitor project, CellTiter-Glo luminescence. inhibition, % (no concentration beside the values). NOMO-1 AML viability, 72 h. 37,000 compounds, 7.5% hits;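 active means most replicates above 80%; inconclusive means exactly half above 80%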;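 further: wells of about 30 µL received 25 nL stock; 0% = median of vehicle wells and 100% = reference inhibitor level; the first replicate is given; inactives centre near 10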
# * marks the source's active call; other numbers are inactive results; ? = inconclusive.
SMILES,NOMO-1 viab
C[C@@H]1CN([C@H](C)CO)C(=O)Cc2cc(NC(=O)Cn3cnnn3)ccc2O[C@H]1CN(C)CC1CCCCC1,24.0
CCCN(C#N)c1nc(NC(C)C)nc(NC(C)C)n1,29.0
C[C@H]1CN([C@@H](C)CO)C(=O)c2cc(NC(=O)Nc3ccccc3)ccc2O[C@@H]1CN(C)Cc1ccc(Cl)c(Cl)c1,17.8
C[C@@H]1CN([C@H](C)CO)C(=O)c2cccc(NC(=O)c3ccc(-c4nccs4)cc3)c2O[C@@H]1CN(C)C(=O)NC1CCCCC1,32.4
COc1ccc(S(=O)(=O)Nc2ccc3c(c2)CC(=O)N([C@@H](C)CO)C[C@H](C)[C@@H](CN(C)C(=O)NC2CCCCC2)O3)cc1,38.3
Cc1oc2c(c1C(=O)NCCCn1ccnc1)C(=O)c1ccccc1C2=O,141.3*
COc1ccc(S(=O)(=O)Nc2ccc3c(c2)C(=O)N([C@@H](C)CO)C[C@H](C)[C@@H](CN(C)Cc2ccc(C(F)(F)F)cc2)O3)cc1,33.8
C[C@H]1CN([C@@H](C)CO)C(=O)c2cc(NC(=O)c3ccncc3)ccc2O[C@H]1CN(C)Cc1ccc(C(=O)O)cc1,1.4
COc1cc(-n2nnnc2SCC(=O)Nc2cccc(Cl)c2Cl)c(OC)cc1Cl,46.2
C[C@H](CO)N1C[C@H](C)[C@H](CN(C)Cc2ccc3c(c2)OCO3)Oc2ccc(NC(=O)C3CCCCC3)cc2C1=O,93.5*
COc1ccc(NC(=O)Nc2ccc3c(c2)CC(=O)N([C@H](C)CO)C[C@H](C)[C@H](CN(C)Cc2ccc4c(c2)OCO4)O3)cc1,25.8
COc1ccc(NC(=O)Nc2cccc3c2O[C@H](CN(C)Cc2ccc(C(=O)Nc4ccccc4N)cc2)[C@H](C)CN([C@@H](C)CO)C3=O)cc1,126.6*
COc1ccc(OC)c(S(=O)(=O)N2CCC(C(=O)Nc3ccc(Cl)cc3)CC2)c1,20.8
S=C1NN=C(c2ccccc2)C(c2ccccc2)N1 (stereo unspecified),34.1
Cc1ccc(S(=O)(=O)Nc2ccc3c(c2)C(=O)N([C@H](C)CO)C[C@H](C)[C@@H](CN(C)C(=O)NC2CCCCC2)O3)cc1,2.1
Cc1cc(C)nc(SCc2nc3ccccc3c(=O)n2-c2ccc(C(F)(F)F)cc2)n1,17.5
CCOc1cc(C)c(Cl)cc1S(=O)(=O)NCc1ccccn1,14.8
C[C@H](CO)N1C[C@H](C)[C@H](CN(C)CC2CCCCC2)Oc2ccc(NC(=O)C3CC3)cc2CC1=O,21.8
Cc1cc2nc(-c3cccc(NC(=O)COc4ccc(Cl)cc4)c3C)oc2cc1C,27.1
CC(C)(OC(=O)c1ccccc1)[C@@H]1Cc2cc3ccc(=O)oc3cc2O1,-10.5
C[C@@H]1CN([C@H](C)CO)C(=O)c2cc(NS(=O)(=O)c3ccc(Cl)cc3)ccc2O[C@H]1CN(C)Cc1ccc(Oc2ccccc2)cc1,66.4
Cc1noc(C)c1NC(=O)Nc1ccc2c(c1)CC(=O)N([C@@H](C)CO)C[C@H](C)[C@H](CN(C)S(=O)(=O)c1ccccc1)O2,6.5
COc1ccc(NC(=O)Nc2cccc3c2O[C@H](CN(C)S(C)(=O)=O)[C@@H](C)CN([C@H](C)CO)C3=O)cc1,-12.2
COc1cc(O)c2c(=O)c(-c3ccc(O)cc3)coc2c1,3.0
C[C@@H]1CN([C@H](C)CO)C(=O)Cc2cc(NC(=O)Nc3ccccc3)ccc2O[C@@H]1CN(C)C(=O)Nc1cccc2ccccc12,17.4
# Following part
SMILES,NOMO-1 viab
CC(=O)c1ccccc1OCC(O)Cn1cnc2ccccc21 (stereo unspecified),10.9
Cc1ccccc1Cn1cc(NC(=O)C2CC(c3ccc(Cl)cc3)=NO2)cn1 (stereo unspecified),2.6
C[C@H]1CN([C@@H](C)CO)C(=O)c2cc(NS(=O)(=O)c3cccs3)ccc2O[C@H]1CN(C)Cc1ccc(Oc2ccccc2)cc1,0.1
C[C@@H]1CN([C@@H](C)CO)C(=O)c2cccc(NC(=O)Nc3ccc(F)cc3)c2O[C@@H]1CN(C)CC1CC1,13.7
C[C@@H]1CN([C@H](C)CO)C(=O)c2cc(NC(=O)C3CC3)ccc2O[C@@H]1CN(C)CC1CCCCC1,33.8
C=C1CCC2[C@](C)(CO)[C@H](O)CC[C@@]2(C)[C@@H]1C/C=C1/C(=O)OC[C@H]1O (stereo partly specified),97.9*
C[C@@H]1CN([C@@H](C)CO)C(=O)c2cccc(NS(=O)(=O)c3ccccc3)c2O[C@H]1CN(C)C(=O)Nc1ccc(F)cc1,11.2
CCc1cc(C(=O)OC)c(NC(=S)Nc2ccc(S(=O)(=O)N3CCOCC3)cc2)s1,-27.4
C[C@@H]1CN([C@H](C)CO)C(=O)c2cc(N(C)C)ccc2O[C@@H]1CN(C)S(=O)(=O)c1ccc(Cl)cc1,11.4
Cc1ccc(C)c(NC(=O)CN(c2ccc(F)c(Cl)c2)S(C)(=O)=O)c1,28.1
C[C@@H]1CN([C@H](C)CO)C(=O)Cc2cc(NS(=O)(=O)c3cn(C)cn3)ccc2O[C@H]1CN(C)Cc1ccc(C(=O)Nc2ccccc2N)cc1,1.9
Cc1ccc(S(=O)(=O)Nc2ccc3c(c2)CC(=O)N([C@@H](C)CO)C[C@@H](C)[C@@H](CN(C)C)O3)cc1,-9.7
Cc1ccc(S(=O)(=O)N(C)C[C@@H]2Oc3ccc(NC(=O)Nc4cccc5ccccc45)cc3C(=O)N([C@@H](C)CO)C[C@@H]2C)cc1,-4.1
C[C@H]1CN([C@@H](C)CO)C(=O)c2cc(NC(=O)NC3CCCCC3)ccc2O[C@H]1CN(C)S(=O)(=O)c1cn(C)cn1,-1.6
Cc1ccc2nc(-c3ccc(NC(=O)Cn4nc([N+](=O)[O-])c(Cl)c4C)cc3)sc2c1,23.8
O=C(c1ccco1)N1CCN(Cc2cccnc2)CC1,8.8
OCCCNc1nc(-c2ccccc2Cl)c2cc(Br)ccc2n1,?
C[C@@H]1CN([C@@H](C)CO)C(=O)c2cccc(NC(=O)c3ccc(-c4nccs4)cc3)c2O[C@@H]1CN(C)S(=O)(=O)c1cccs1,11.1
CC(C)(CSc1nnc(Nc2ccccc2)s1)NS(=O)(=O)c1ccc(Cl)cc1,14.2
CC(Nc1nc2ccccc2n1C)c1cc(Cl)ccc1O (stereo unspecified),31.2
COc1ccc(S(=O)(=O)N(C)C[C@H]2Oc3ccc(NC(=O)Nc4cccc5ccccc45)cc3CC(=O)N([C@H](C)CO)C[C@H]2C)cc1,9.7
C[C@H](CO)N1C[C@H](C)[C@H](CN(C)C(=O)NC2CCCCC2)Oc2ccc(NC(=O)C3CC3)cc2CC1=O,0.0
Cc1ccccc1NC(=O)CSc1nc(N2CCCCC2)nc(N2CCCCC2)n1,-3.0
Cc1cc2nc(-c3ccc(NC(=O)COc4ccccc4[N+](=O)[O-])cc3)oc2cc1C,-18.7
COc1ccc(NC(=O)c2ccco2)cc1NC(=S)NC(=O)c1cc2ccccc2o1,23.2

# Shown with each value named: part of the list above
Cc1cc(C)nc(SCc2nc3ccccc3c(=O)n2-c2ccc(C(F)(F)F)cc2)n1
  NOMO-1 viab: 17.5

CCOc1cc(C)c(Cl)cc1S(=O)(=O)NCc1ccccn1
  NOMO-1 viab: 14.8

C[C@H](CO)N1C[C@H](C)[C@H](CN(C)CC2CCCCC2)Oc2ccc(NC(=O)C3CC3)cc2CC1=O
  NOMO-1 viab: 21.8

Cc1cc2nc(-c3cccc(NC(=O)COc4ccc(Cl)cc4)c3C)oc2cc1C
  NOMO-1 viab: 27.1

# Quoted at random: 2 compounds from above.
SMILES,NOMO-1 viab
Cc1ccc(S(=O)(=O)N(C)C[C@@H]2Oc3ccc(NC(=O)Nc4cccc5ccccc45)cc3C(=O)N([C@@H](C)CO)C[C@@H]2C)cc1,-4.1
C[C@H](CO)N1C[C@H](C)[C@H](CN(C)C(=O)NC2CCCCC2)Oc2ccc(NC(=O)C3CC3)cc2CC1=O,0.0

# Further entries follow:
SMILES,NOMO-1 viab
CS(=O)(=O)N(CC(=O)Nc1ccc(F)cc1)c1ccccc1Br,8.8
O=C1C2=C(NC(=S)NC2c2ccccc2)c2ccccc21 (stereo unspecified),114.3*
C[C@@H]1CN([C@@H](C)CO)C(=O)c2cccc(NC(=O)NC3CCCCC3)c2O[C@@H]1CN(C)CC1CCCCC1,15.8
Cc1ncsc1CCSc1n[nH]c(=O)n1-c1ccccc1,3.9
O=C(CCN1C(=O)c2ccccc2C1=O)Oc1c(-c2ccccc2)oc2ccccc2c1=O,44.1
C[C@@H]1CCCCO[C@@H](CN(C)C(=O)C2CCCCC2)[C@@H](C)CN([C@H](C)CO)C(=O)c2cc(NS(C)(=O)=O)ccc2O1,25.4
CNC[C@@H]1Oc2ccc(NC(=O)Cc3ccccc3)cc2CC(=O)N([C@H](C)CO)C[C@H]1C,-21.1
C[C@H]1CN([C@@H](C)CO)C(=O)c2cccc(NC(=O)c3cnccn3)c2O[C@H]1CN(C)S(=O)(=O)c1cccs1,11.7
C[C@@H]1CCCCO[C@H](CN(C)C(=O)Nc2ccc(F)cc2)[C@@H](C)CN([C@H](C)CO)C(=O)c2cc(NC(=O)Nc3ccc(F)cc3)ccc2O1,18.2
Cc1noc(C)c1S(=O)(=O)Nc1ccc2c(c1)C(=O)N([C@H](C)CO)C[C@H](C)[C@@H](CN(C)C(=O)Nc1ccccc1)O2,18.1
Cc1ccc(C(=O)NC(=O)CSc2nnnn2-c2ccccc2)cc1,-1.6
COC(=O)c1ccccc1NC(=O)C1=C(C)NC(=S)NC1c1ccc(OC2CCCC2)c(OC)c1 (stereo unspecified),24.0
C[C@H](CO)N1C[C@H](C)[C@@H](CN(C)S(=O)(=O)c2cn(C)cn2)Oc2ccc(NC(=O)Cc3cn(C)c4ccccc34)cc2C1=O,22.6
COc1ccc(S(=O)(=O)N(C)C[C@@H]2Oc3c(NC(=O)c4ccc(-c5nccs5)cc4)cccc3C(=O)N([C@H](C)CO)C[C@@H]2C)cc1,49.1
O=C(Cn1cnc2ccccc2c1=O)Nc1ccc(Cl)c(Cl)c1,33.3
COc1ccc(S(=O)(=O)N(C)C[C@H]2Oc3c(NC(=O)NC4CCCCC4)cccc3C(=O)N([C@@H](C)CO)C[C@@H]2C)cc1,23.6
C[C@H]1CN([C@@H](C)CO)C(=O)c2cccc(NC(=O)Nc3ccc4c(c3)OCO4)c2O[C@@H]1CN(C)S(=O)(=O)c1ccccc1,14.2
C[C@H]1CN([C@@H](C)CO)C(=O)c2cc(NC(=O)c3ccncc3)ccc2O[C@@H]1CN(C)Cc1ccc(Cl)c(Cl)c1,-16.3
Cc1c(C#N)c(Sc2ccccc2Cl)nc2ccccc12,0.7
COC(=O)c1ccccc1NC(=O)C(C)(C)Oc1ccc(Cl)cc1,-6.3
CC(C)NC(=O)N(C)C[C@@H]1Oc2ccc(NS(=O)(=O)c3cccs3)cc2C(=O)N([C@@H](C)CO)C[C@H]1C,-22.7
COc1ccc(NC(=O)Nc2ccc3c(c2)CC(=O)N([C@H](C)CO)C[C@@H](C)[C@H](CN(C)S(=O)(=O)c2ccc(F)cc2)O3)cc1,-2.4
Cc1noc(C)c1S(=O)(=O)N(C)C[C@H]1Oc2ccc(NC(=O)C3CCCCC3)cc2CC(=O)N([C@H](C)CO)C[C@H]1C,-9.3
O=C(CSc1ncnc2scc(-c3ccccc3)c12)Nc1cccc(Cl)c1Cl,35.7
CC(C)NC(=O)N(C)C[C@@H]1Oc2c(NC(=O)C3CC3)cccc2C(=O)N([C@@H](C)CO)C[C@H]1C,4.3
# Remaining list, next part
SMILES,NOMO-1 viab
COc1ccc(C(=O)Nc2sc3c(c2C(=O)NC2CCS(=O)(=O)C2)CCCC3)cc1OC (stereo unspecified),-3.1
C[C@H](CO)N1C[C@H](C)[C@H](CN(C)Cc2ccc(Oc3ccccc3)cc2)Oc2c(NC(=O)CCCCCC(=O)Nc3ccccc3N)cccc2C1=O,138.7*
COc1ccc(CN(C)C[C@@H]2Oc3ccc(NS(=O)(=O)c4ccc(OC)cc4)cc3C(=O)N([C@H](C)CO)C[C@H]2C)cc1,-15.7
C[C@H](CO)N1C[C@H](C)[C@H](CN(C)Cc2ccc(C(=O)O)cc2)Oc2c(NS(=O)(=O)c3ccc(Cl)cc3)cccc2C1=O,-6.9
Cc1noc(C)c1S(=O)(=O)Nc1ccc2c(c1)CC(=O)N([C@H](C)CO)C[C@@H](C)[C@@H](CN(C)C(=O)Nc1ccccc1)O2,-2.2
Cc1nc(SCC(=O)Nc2cccc(Cl)c2Cl)nc2c1CCCC2,-6.2
C[C@@H]1CN([C@@H](C)CO)C(=O)c2cccc(NC(=O)CCCCCC(=O)Nc3ccccc3N)c2O[C@H]1CN(C)Cc1ccncc1,4.9
COc1ccc(NC(=O)Nc2ccc3c(c2)CC(=O)N([C@@H](C)CO)C[C@H](C)[C@H](CN(C)Cc2ccc(C(=O)Nc4ccccc4N)cc2)O3)cc1,125.7*
Cc1ccc(C(C)C)c(OCCSc2nc3ncnc(N)c3[nH]2)c1,13.6
C[C@@H]1CN([C@@H](C)CO)C(=O)c2cccc(NS(=O)(=O)c3ccc(F)cc3)c2O[C@@H]1CN(C)S(=O)(=O)c1cn(C)cn1,15.7
C[C@H](CO)N1C[C@H](C)[C@H](CN(C)S(=O)(=O)c2ccccc2)Oc2ccc(NC(=O)CCC(F)(F)F)cc2CC1=O,33.7
CC(C)NC(=O)Nc1ccc2c(c1)CC(=O)N([C@H](C)CO)C[C@H](C)[C@H](CN(C)S(=O)(=O)c1ccc(F)cc1)O2,-14.0
C[C@H]1CN([C@@H](C)CO)C(=O)c2cc(NS(=O)(=O)c3ccc(F)cc3)ccc2O[C@@H]1CN(C)Cc1ccc(C(F)(F)F)cc1,-15.1
Cc1cc(=O)[nH]c(SCc2nc3ccccc3[nH]2)n1,9.4
COc1ccc(S(=O)(=O)Nc2ccc3c(c2)C(=O)N([C@H](C)CO)C[C@@H](C)[C@@H](CN(C)C(=O)Nc2c(C)noc2C)O3)cc1,7.1
CNC[C@@H]1Oc2ccc(NC(=O)c3ccncc3)cc2CC(=O)N([C@H](C)CO)C[C@@H]1C,8.6

# Some of the compounds tested; count on the stated rates, not on these rows.
